Screening results deposited in PubChem BioAssay by National Center for Advancing Translational Sciences (NCATS).
miR-21 FLuc: miR-21 reporter, rising signal; Potency, µM (titrated, usually from 38.3 µM), inactives show top-dose reporter change, positive = more light; HeLa miR-21 FLuc reporter, luciferase, 48 h; 340,000 tested, under 10 active; active = well fitted rising curve with a large enough effect; inconclusive = small, poorly fitted or top-dose-only effect; inactive = no such curve, though single readings can be large or run the other way;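 further: % of control where 0% means no effect; miR-21 action dims this reporter so a rising signal means less miR-21 action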
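Using DMEM plus 10% FBS, HeLa miR-21-FLuc cells are incubated with test compounds (final up to about 40uM) for 48 hours; firefly luciferase signal is then imaged following reagent-mediated lysis.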
Rango dissoc inh: inhibition of RanGTP-driven Rango-importin beta dissociation; O95149+P62826; Biochemical FRET Rango-importin beta, RanGTP-induced dissociation; Potency, µM (top dose mostly 46.1 µM), for the others: top-dose activity change, negative = inhibition; hit rate 0.071% among 340,000; active means falling FRET ratio curve, often poorly fitted, with flat reads before Ran was added; inconclusive means other falling curves, or compound fluorescence or quenching; inactive means flat or rising ratio curve;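 further: potency means the concentration at half of the fitted maximal effect; % of control where 0% means no effect; nearly all actives have a fitted effect of over 45% in size; -100% = wells without RanGTP and RCC1; the record marks most hits as doubtful in a second field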
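Two FRET readings bracket the reaction: one 5 min after compound meets Rango–importin beta, another 45 min after RanGTP-RCC1 (0.6 uM Ran, 0.2 uM RCC1, 2 mM GTP) is added. Only the second defines inhibition.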
Rango-impB inh: inhibitors of Rango-importin beta complex formation; hit rate 0.031% among 340,000; Potency, µM (top dose mostly 92.2 µM), inactives show at the top dose inhibition of complex formation; AID 540263; Rango CFP/YFP FRET sensor + importin beta, 45 min; Q14974; active = rising FRET ratio curve, often small or poorly fitted; inconclusive = mostly compound fluorescence or quenching in the first reads; inactive = flat curves in all reads;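 further: potency means the concentration at half of the fitted maximal effect; 0% = DMSO wells and 100% = buffer wells lacking importin beta; nearly all actives have a fitted effect of over 15% in size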
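Inhibition scored from the CFP 486 nm/YFP 530 nm FRET ratio 45 min after adding 0.125 microM importin beta to 50 nM Rango biosensor preincubated 5 min with compound (room temperature, PBS with DTT, Tween-20, BSA). No-importin wells as positive control.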
GLA inh pH 4.5: alpha-galactosidase A (human) inhibition, pH 4.5 | purified enzyme, 4-MU-alpha-Gal fluorescence, pH 4.5 | activity change, negative = inhibition, % at 105 µM | 230,000 tested, under 10 active; inconclusive = small, poorly fitted or top-dose-only inhibition, or a rising curve; inactive = flat fitted curve, though single readings scatter; no compound was filed as active;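 further: 0% = full activity with enzyme and -100% = basal without enzyme; dose as in the result columns while the protocol names 77 µM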
Target sequence (P06280 whole entry, looked up): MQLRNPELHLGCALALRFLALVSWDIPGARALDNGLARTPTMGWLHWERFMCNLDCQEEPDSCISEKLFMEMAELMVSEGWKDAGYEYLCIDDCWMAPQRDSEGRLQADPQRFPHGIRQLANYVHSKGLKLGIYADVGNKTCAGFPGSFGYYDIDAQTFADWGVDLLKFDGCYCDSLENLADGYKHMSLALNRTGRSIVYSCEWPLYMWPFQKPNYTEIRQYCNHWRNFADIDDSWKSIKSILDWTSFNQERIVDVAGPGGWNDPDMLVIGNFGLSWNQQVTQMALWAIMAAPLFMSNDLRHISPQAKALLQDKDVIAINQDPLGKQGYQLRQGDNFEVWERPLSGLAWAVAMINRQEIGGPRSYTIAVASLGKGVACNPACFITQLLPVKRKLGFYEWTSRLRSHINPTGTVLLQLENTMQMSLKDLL
Numbers without * were called inactive. The list is partial; rates above refer to the full screens.

Screening O=C(Nn1cnnc1)c1ccc([N+](=O)[O-])cc1 returned miR-21 FLuc 0%, Rango dissoc inh 0%, Rango-impB inh -0.2% and GLA inh pH 4.5 8.
For CCN1CCN(CC(=O)Nc2cc(S(=O)(=O)N(CC)c3ccccc3)ccc2Cl)CC1 the results were Rango dissoc inh -7% and Rango-impB inh 3.3%.
CCOc1ccccc1NC(=S)NCCCn1ccnc1 was read as miR-21 FLuc -6%, Rango dissoc inh 3%, Rango-impB inh 3.8% and GLA inh pH 4.5 -14.
For Nc1nc(Nc2ccccc2F)nc(N2CCOCC2)c1[N+](=O)[O-] the results were miR-21 FLuc -13%, Rango dissoc inh -11%, Rango-impB inh 3.4% and GLA inh pH 4.5 -8.
For O=C(NC1CCCC1)C(c1ccncc1)N(C(=O)c1csnn1)c1ccc(F)cc1 (stereo unspecified) the results were miR-21 FLuc 1%, Rango dissoc inh -17% and Rango-impB inh -6.6%.
Screening COC(=O)Cn1ncc(N(C)Cc2ccccc2)c(Cl)c1=O returned miR-21 FLuc -45%, Rango dissoc inh -6% and Rango-impB inh -0.7%.
`COCCCn1c(C)csc1=Nc1cccnc1` gave miR-21 FLuc -4%, Rango dissoc inh 6%, Rango-impB inh 0.1% and GLA inh pH 4.5 9.
Screening CC(C)(C)c1csc(NC(=O)CS(=O)(=O)c2ccccc2)n1 returned miR-21 FLuc -52%, Rango dissoc inh -8% and Rango-impB inh -2.2%.
COc1ccc(-c2c(-c3ccccc3OC)oc3ccccc23)cc1F was read as Rango dissoc inh -9% and Rango-impB inh -2.7%.
`CCOC(=O)c1cnc2nc[nH]n2c1=O` gave miR-21 FLuc 2%, Rango dissoc inh 5%, Rango-impB inh 2.0% and GLA inh pH 4.5 9.
Screening Fc1ccccc1CSc1ncnc2c1ncn2C1CCCCO1 (stereo unspecified) returned Rango dissoc inh inconclusive and Rango-impB inh 3.1%.
`COc1ccc(-c2nc(C)ncc2-c2ccccc2)c(O)c1` gave miR-21 FLuc -9%, Rango dissoc inh -4% and Rango-impB inh -1.6%.
Screening CC(C)c1ccc(NC(=S)NCc2cccs2)cc1 returned miR-21 FLuc -27%, Rango dissoc inh -15%, Rango-impB inh 1.7% and GLA inh pH 4.5 1.
Screening Cc1ccc(C2(C)NC(=O)N(CC(=O)N3CCN(S(=O)(=O)c4cccc(F)c4)CC3)C2=O)cc1 (stereo unspecified) returned miR-21 FLuc 7%, Rango dissoc inh 5% and Rango-impB inh -0.3%.
Screening C=CCNCc1cccn1-c1sc2c(c1C#N)CCCC2 returned miR-21 FLuc 6%, Rango dissoc inh -2%, Rango-impB inh -2.0% and GLA inh pH 4.5 -3.
`COc1ccccc1OCCn1c(SCC(N)=O)nc2ccccc21` gave miR-21 FLuc 1%, Rango dissoc inh 25% and Rango-impB inh 4.8%.
Cc1ccc(C(=O)c2ccccc2C(=O)OCC(=O)NCCc2ccc(Cl)cc2Cl)cc1 was read as miR-21 FLuc 1%, Rango dissoc inh 1%, Rango-impB inh 1.8% and GLA inh pH 4.5 -3.
For CCCNC(=O)NC(=O)CSc1nc2ccccc2c(=O)n1Cc1ccncc1 the results were miR-21 FLuc 2%, Rango dissoc inh 8% and Rango-impB inh 0.9%.
CCCN(CC(=O)Nc1ccccc1C)C(=O)Cc1c[nH]c2ccccc12 was read as Rango dissoc inh 1% and Rango-impB inh 0.6%.
CCCCN1C(=O)/C(=C/C=C2\SCCN2C)SC1=S was read as miR-21 FLuc -65%, Rango dissoc inh -6%, Rango-impB inh 52µM* and GLA inh pH 4.5 -2.
`CN(Cc1ccccc1)c1c([N+](=O)[O-])c(=O)n(C)c2ccccc12` gave miR-21 FLuc -10%, Rango dissoc inh 12%, Rango-impB inh -0.2% and GLA inh pH 4.5 -7.
OCCC1CN(Cc2nc(-c3ccccc3)cs2)CCN1CCc1ccccc1 (stereo unspecified) was read as miR-21 FLuc -3%, Rango dissoc inh 8%, Rango-impB inh 3.1% and GLA inh pH 4.5 4.
`O=C1C=C(c2ccccc2)CC(c2cccs2)C1n1cnc([N+](=O)[O-])c1` (stereo unspecified) gave miR-21 FLuc -3%, Rango dissoc inh -20%, Rango-impB inh 0.1% and GLA inh pH 4.5 -8.
Cn1nnnc1SCC(=O)Nc1nc2ccccc2s1 was read as miR-21 FLuc -43%, Rango dissoc inh 0%, Rango-impB inh -0.5% and GLA inh pH 4.5 3.
Cc1ccc(C23CC4CC(CC(C(=O)NN)(C4)C2)C3)cc1 was read as miR-21 FLuc 0%, Rango dissoc inh 8% and Rango-impB inh 0.0%.
Screening COc1ncccc1C(=O)N1CCCC(N2CCN(c3ccc(F)cc3)CC2)C1 (stereo unspecified) returned Rango dissoc inh 2% and Rango-impB inh 1.6%.
Screening CCOc1ccc(N2C(=O)CC(NC3CCCCNC3=O)C2=O)cc1 (stereo unspecified) returned miR-21 FLuc -10%, Rango dissoc inh 3%, Rango-impB inh 8.9% and GLA inh pH 4.5 4.
Screening COc1ccccc1C(=O)COC(=O)c1cccs1 returned Rango dissoc inh -10% and Rango-impB inh -1.3%.
For COC(=O)c1ccc(/C=N/Nc2nc(-c3ccc(Cl)cc3Cl)cs2)cc1 the results were miR-21 FLuc -2% and GLA inh pH 4.5 0.
O=C(NCCn1c(C(F)(F)F)nc2ccccc21)[C@H]1CCCN1c1nc(CN2CCCCC2)cs1 was read as miR-21 FLuc -5%, Rango dissoc inh 8% and Rango-impB inh -0.1%.
NC(=O)c1ccc(NC(=O)COC(=O)c2cc([N+](=O)[O-])ccc2N2CCOCC2)cc1 was read as Rango dissoc inh 0% and Rango-impB inh 4.8%.
Cc1ccc(NC(=O)CN(C)CC(=O)Nc2cccc(F)c2)cc1S(=O)(=O)N1CCCCCC1 was read as miR-21 FLuc 29%, Rango dissoc inh -8%, Rango-impB inh 3.6% and GLA inh pH 4.5 -25.
For O=C(c1ccc(F)cc1)N1CCC(C(=O)N2CCN(S(=O)(=O)c3ccccc3Br)CC2)CC1 the results were Rango dissoc inh -9% and Rango-impB inh 0.6%.
`C=CCn1c(SCC(=O)NC2CCCCC2)nnc1C(C)NC(=O)c1cccs1` (stereo unspecified) gave miR-21 FLuc 0%, Rango dissoc inh 12%, Rango-impB inh -2.3% and GLA inh pH 4.5 -14.
Screening Cc1nc(C)n(C(C)CNC(=O)c2ccco2)n1 (stereo unspecified) returned miR-21 FLuc 2%, Rango dissoc inh -18% and Rango-impB inh 1.9%.
For COc1ccc(CCNC(=S)Nc2cc(C)ccc2C)cc1 the results were miR-21 FLuc 5%, Rango dissoc inh 4%, Rango-impB inh -2.3% and GLA inh pH 4.5 0.
Screening Cc1ccc(O)c(N)c1 returned Rango dissoc inh -18% and Rango-impB inh -1.2%.
Screening Oc1ccc(N2CCN(C(c3cccs3)c3nnnn3CCc3ccccc3)CC2)cc1 (stereo unspecified) returned miR-21 FLuc -8%, Rango dissoc inh -10%, Rango-impB inh -5.7% and GLA inh pH 4.5 -2.
For CCC(C(=O)OCC(=O)c1ccc2c(c1)NC(=O)CO2)c1ccccc1 (stereo unspecified) the results were miR-21 FLuc 0%, Rango dissoc inh 14%, Rango-impB inh -0.7% and GLA inh pH 4.5 4.
Cc1cc(C)nc(N2CCCC(C(=O)Nc3ccc(F)cc3)C2)n1 (stereo unspecified) was read as miR-21 FLuc -2%, Rango dissoc inh -1% and Rango-impB inh 0.3%.
Screening O=C(c1cccnc1)N1CCc2ccccc21 returned miR-21 FLuc -9%, Rango dissoc inh -1%, Rango-impB inh -1.9% and GLA inh pH 4.5 -3.
For COc1cc(C(=O)NCC(=O)OCc2ccc(F)cc2)cc(OC)c1OC the results were Rango dissoc inh 13% and Rango-impB inh -0.1%.
`CN(CC(=O)Nc1cccc(F)c1)C(=O)c1cccc(S(=O)(=O)N2CC3(C)CC2CC(C)(C)C3)c1` (stereo unspecified) gave Rango dissoc inh 13% and Rango-impB inh 4.2%.
COC(=O)c1sc(N2C(=O)C(=O)/C(=C(/O)c3ccccc3)C2c2ccco2)nc1C (stereo unspecified) was read as miR-21 FLuc -10%, Rango dissoc inh -3%, Rango-impB inh inconclusive and GLA inh pH 4.5 0.
Screening O=C(NCCC1CCCCN1S(=O)(=O)c1ccccc1)C(=O)NCc1ccco1 (stereo unspecified) returned Rango dissoc inh 6% and Rango-impB inh -3.0%.

Some of these compounds in order of heavy-atom count, falling:
COC(=O)c1sc(N2C(=O)C(=O)/C(=C(/O)c3ccccc3)C2c2ccco2)nc1C (stereo unspecified) was read as miR-21 FLuc -10%, Rango dissoc inh -3%, Rango-impB inh inconclusive and GLA inh pH 4.5 0.
For CCC(C(=O)OCC(=O)c1ccc2c(c1)NC(=O)CO2)c1ccccc1 (stereo unspecified) the results were miR-21 FLuc 0%, Rango dissoc inh 14%, Rango-impB inh -0.7% and GLA inh pH 4.5 4.
Screening O=C(c1cccnc1)N1CCc2ccccc21 returned miR-21 FLuc -9%, Rango dissoc inh -1%, Rango-impB inh -1.9% and GLA inh pH 4.5 -3.
Screening Cc1ccc(O)c(N)c1 returned Rango dissoc inh -18% and Rango-impB inh -1.2%.

(next part)
Screening Cc1ccc(CCNC(=O)CNC(=O)c2cccs2)cc1 returned miR-21 FLuc -17%, Rango dissoc inh 7%, Rango-impB inh 1.0% and GLA inh pH 4.5 -2.
`C#CCOCCOCCOCCNc1nc(N2CCOCC2)nc(N2CCN(C(=O)Cn3cc(CC(C)O)nn3)CC2)n1` (stereo unspecified) gave miR-21 FLuc -4%, Rango dissoc inh 1%, Rango-impB inh -3.5% and GLA inh pH 4.5 7.
Cc1c(C(=O)N2CCCCCC2)c(S(=O)(=O)NCc2ccccc2Cl)c(C)n1C was read as miR-21 FLuc 0%, Rango dissoc inh -7% and Rango-impB inh 4.0%.
COc1cccc(OC)c1C(=O)NC(=O)Oc1c(F)cccc1F was read as miR-21 FLuc 6%, Rango dissoc inh 5% and Rango-impB inh -2.3%.
For COc1ccc(NC(=O)c2cc3ccccc3o/c2=N\NS(=O)(=O)c2ccc(C)cc2)cc1 the results were miR-21 FLuc -62%, Rango dissoc inh -6% and Rango-impB inh 3.5%.
For CC1(C)C2CCC1(CS(=O)(=O)N1CCN(c3ccccc3F)CC1)C(=O)C2 (stereo unspecified) the results were miR-21 FLuc 1%, Rango dissoc inh -3% and Rango-impB inh 0.1%.
CC(C)n1ncc2c(C(=O)Nc3cccc(C#N)c3)cc(C3CC3)nc21 was read as Rango dissoc inh -5% and Rango-impB inh -4.8%.
For COc1ccc(Br)cc1CN1CCC(N2CCCC2)CC1 the results were miR-21 FLuc -8%, Rango dissoc inh 14% and Rango-impB inh 4.0%.
Screening O=S(=O)(c1ccccc1)[C@@]1(c2ccc(Br)cc2)C[C@@H]2ON=C(c3cccc(Br)c3)[C@@H]2C1 returned Rango dissoc inh 1% and Rango-impB inh 0.0%.
`CC(=O)Nc1ccc2nc(SCC(=O)O)sc2c1` gave miR-21 FLuc -1%, Rango dissoc inh -9%, Rango-impB inh 4.8% and GLA inh pH 4.5 -2.
For CC(C)c1ccc(/C=C/C(=O)NNC(=O)c2cccnc2)cc1 the results were miR-21 FLuc -20%, Rango dissoc inh 48%, Rango-impB inh 0.8% and GLA inh pH 4.5 6.
Screening COc1ccccc1CCNC(=O)CCn1c(=O)oc2ccccc21 returned miR-21 FLuc -9%, Rango dissoc inh inconclusive, Rango-impB inh 1.6% and GLA inh pH 4.5 6.
Cc1ccc(N2CN=c3s/c(=C\c4ccccn4)c(=O)n3C2)cc1 was read as miR-21 FLuc 11%, Rango dissoc inh 1%, Rango-impB inh 3.9% and GLA inh pH 4.5 -3.
`Cc1ccc(-c2ccnc3nc(-n4cccc4)nn23)o1` gave miR-21 FLuc -13%, Rango dissoc inh -3%, Rango-impB inh -5.8% and GLA inh pH 4.5 11.
COc1ccc(NC(=O)CSc2ccc(NC(C)=O)cc2)cc1S(=O)(=O)N1CCCCC1 was read as miR-21 FLuc -4%, Rango dissoc inh 5%, Rango-impB inh -4.2% and GLA inh pH 4.5 -12.
For Cc1ccc(/C=C/C(=O)c2ccccc(=O)c2O)c(C)c1 the results were miR-21 FLuc 18%, Rango dissoc inh 8.2µM*, Rango-impB inh inconclusive and GLA inh pH 4.5 -2.
`Cc1ccc(S(=O)(=O)CCC(=O)N2CCc3ccccc32)cc1` gave miR-21 FLuc -9%, Rango dissoc inh -1%, Rango-impB inh 6.9% and GLA inh pH 4.5 -18.
